Assay outcomes: PubChem, Broad Institute
Tgondii IFNg: inhibitors of Toxoplasma gondii growth with IFN-gamma | actives 3.8% (n = 69,000) | AID 1259416 | activity change, negative = inhibition, %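 (about 20 µM by stock and volumes)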 | Toxoplasma gondii growth in IFN-gamma-treated host cells; active compounds read low; reference of the scale not given here;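 active = below -70%; inconclusive = fit judged invalid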;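 also: host cells are HeLa cells infected with Toxoplasma gondii; parasite growth read as luciferase light; one replicate is shown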
* hit, by the source's call; i = inactive; ? = inconclusive; & = joins results of further samples. Only part of the results is shown, so the mix of outcomes need not match the whole.

SMILES	Tgondii IFNg
COc1ccc(CNC(=O)C2=C(C)C(=O)OC23CCN(S(=O)(=O)c2cccs2)CC3)cc1	19.1
C[C@@H](NCCCc1cccc(C(F)(F)F)c1)c1cccc2ccccc12	27.3
COc1cccc(-c2cn[nH]c2C2CCN(C(=O)c3onc4ccccc34)CC2)c1	-9.4
NC(N)=NC(N)=Nc1ccccc1	14.6&15.6
C=CC[C@@H]1CC=C[C@@H](C)N1Cc1ccc(S(C)(=O)=O)cc1	9.8
COc1ccc(C2(CNS(=O)(=O)c3ccccc3)CCCC2)cc1OC	-11.7
CN1CCN(S(=O)(=O)c2cc(C(=O)O)cc(-c3cccc4ccnn34)c2)CC1	-3.7
Cc1noc(C)c1C1CCCN1Cc1cn(C(C)C)c2ccccc12 (stereo not drawn)	2.2
COCc1cc(CNC(=O)c2cc(NC(C)=O)ccc2Cl)[nH]n1	-2.5
COC(=O)Cn1c(=O)c(C)nc2ccccc21	174.1
CC(C)(C)OC(=O)NC(Cc1cc(=O)[nH]c(-c2cccnc2)n1)c1ccccc1 (stereo not drawn)	-55.0
CC(C)c1cc(C2CCN(C(=O)C3CC(=O)c4ccccc43)CC2)[nH]n1 (stereo not drawn)	1.5
CCOC(=O)c1noc2ncn(Cc3nc(-c4cccc(C)c4)oc3C)c(=O)c12	-6.0
CCCCOc1ccc(-c2cc3c(=O)n(Cc4nc(-c5cccc(Cl)c5)oc4C)ccn3n2)cc1	11.7
CC(=O)N1CCOCC2(C1)CN(S(=O)(=O)C1CC1)CCO2 (stereo not drawn)	-11.8

Grouped by structure: those above containing a carbonyl joined to an NH by a bond outside any ring
SMILES	Tgondii IFNg
COc1ccc(CNC(=O)C2=C(C)C(=O)OC23CCN(S(=O)(=O)c2cccs2)CC3)cc1	19.1
COCc1cc(CNC(=O)c2cc(NC(C)=O)ccc2Cl)[nH]n1	-2.5
CC(C)(C)OC(=O)NC(Cc1cc(=O)[nH]c(-c2cccnc2)n1)c1ccccc1 (stereo not drawn)	-55.0

(listing goes on)
SMILES	Tgondii IFNg
CNC(=O)CC1C(=O)N(Cc2ccccc2)C(=S)N1NC(=O)c1ccccc1 (stereo not drawn)	-9.0
OCc1ccc(CN2CCC(c3cc(-c4ccccc4Cl)n[nH]3)CC2)o1	-4.4
CCN1c2ccccc2C(=O)NC12CCN(C(=O)c1ccc(OC)cc1)CC2	35.2
COc1ccc(CCNc2ncnc3c2cnn3-c2ccccc2)cc1OC	21.2
Cn1c(SCC(=O)c2ccccc2)nnc1-c1ccncc1	9.2
Cc1ccc(S(=O)(=O)NC(=O)NC2CCCc3ccccc32)cc1 (stereo not drawn)	-56.4
CC(=O)c1ccc2c(c1)[C@@H]1C=CC[C@@H]1[C@H](c1cc3c(cc1Br)OCO3)N2	-75.3*
COCCN(CCOC)C(=O)c1cc2c(c3ccccc3n2C(C)C)n1-c1ncccn1	6.9
COc1c(C(=O)O)csc1Br	30.4
Cc1ccc(CN2CCC3(CCC(=O)N3Cc3ccccc3)CC2)s1	54.3
CCOCC1CN(C(=O)c2cscn2)Cc2cn(C)nc21 (stereo not drawn)	31.0
O=C(Cc1ccc(N2CCNC2=O)cc1)N1CCCC2(CCNC2)C1 (stereo not drawn)	2.7
Cc1noc(C)c1NC(=O)N(C)C[C@@H]1OCCCC[C@@H](C)Oc2ccc(NC(=O)Nc3ccc(C(F)(F)F)cc3)cc2C(=O)N([C@H](C)CO)C[C@H]1C	249.6
Cc1cnc(CNC(=O)[C@H]2CC3C(CCN3C(C)C)O2)cn1 (stereo partly drawn)	i
COc1cc(OC)cc(C(=O)NCCc2csc(-c3cccc(F)c3)n2)c1	29.9
O=S(=O)(NCC1CCN(Cc2ccccn2)C1)c1cccc(F)c1 (stereo not drawn)	-0.5
C=CCn1c(=O)c(C(=O)Nc2ccccn2)c(O)c2ccccc21	172.3
O=C(CCC1N=C2c3ccccc3N=C(SCc3ccc(Cl)cc3)N2C1=O)NCc1cccs1 (stereo not drawn)	-52.5
CCN(C/C=C/c1ccccc1)C(=O)c1ccc(NC(C)=O)cc1	3.8
CC1=CC(C)(C)c2ccccc2N1Cc1ccccc1	4.2
O=C(C1CCOC1)N1CCc2ncnc(NC3CC3)c2CC1 (stereo not drawn)	-0.1
CC(NC(=O)CCC1CCCC1)c1nc(-c2ccncc2)n[nH]1 (stereo not drawn)	-43.5
c1ccc2c3c([nH]c2c1)CN(Cc1cc2n(n1)CCNC2)CC3	3.3
CO[C@H]1CC[C@H]2CCOc3c(C#N)cccc3C(=O)N(C)C[C@@H](c3ccccc3)CC(=O)N(C)C[C@H]1O2	-42.1
C[C@@H]1CN(Cc2ccccn2)CC[C@]12CCC(C(=O)NCC1CC1)O2 (stereo partly drawn)	58.5
CN(C)[C@@H]1CCc2[nH]c3ccc(NC(=O)c4ccc(F)cc4)cc3c2C1	12.6&-3.7
CS(=O)(=O)N1CC(=O)N2[C@H](C1)[C@@H](c1ccc(C#CCC3CCCC3)cc1)[C@@H]2CO	-33.0
COC(=O)[C@@H]1C[C@H](C(=O)NCCn2ccc(C)n2)[C@H](c2ccccc2F)N1C	10.1
O=C(Nc1ccc(F)cc1)N1C[C@@H]2[C@H](c3ccccc31)[C@@H](CO)N2C(=O)c1ccncc1	13.3
Cn1cc(-c2nc(-c3ccccc3)c(-c3ccccc3)[nH]2)c2ccccc21	36.0
CCCC(=O)N(Cc1ccccc1)Cc1nc(C)ncc1-c1ccncc1	21.2
O=C(NC1CCCC1)N1CC[C@H]2CN(Cc3ccc(Cl)cc3)S(=O)(=O)[C@@H]2CC1	-89.3*
COc1ccc2[nH]c(=O)c(CN3C[C@H](O)[C@@H](N4CCN(C)CC4)C3)cc2c1	14.1
COc1cc(-c2nc(Cn3ccn4nc(-c5ccc(C)cc5)cc4c3=O)c(C)o2)cc(OC)c1OC	-66.1
CCOC(=O)c1nc(N2CCC(c3ccccc3)C2)c2ccccc2n1 (stereo not drawn)	11.8
CCOCC1CN(C(=O)c2cc(C)on2)Cc2nccn2C1 (stereo not drawn)	-6.9
O=C(Nc1cnc2n1CCCC2)c1cc2ccccc2o1	-3.4
CN1C(=O)c2cc(NS(=O)(=O)CC(F)(F)F)ccc2OC[C@H]2O[C@@H](CC(=O)NCc3ccc(Cl)c(Cl)c3)CC[C@@H]21	-22.3
COc1cc(CN2CCCC(c3ccc(Nc4cnccn4)cn3)C2)ccc1OCC(N)=O (stereo not drawn)	3.8
COc1ccccc1-c1nc(Cn2nnc(C(=O)Nc3ccc(Cl)c(Cl)c3)c2C)c(C)o1	90.2
Cc1noc(CCC(=O)Nc2ccc3c(c2)N(S(C)(=O)=O)CC3)n1	-12.8
CC(C(=O)NCC(C)(C)N1CCOCC1)N(c1ccccc1)S(C)(=O)=O (stereo not drawn)	0.6
NS(=O)(=O)c1ccc(-n2ncc3ccccc3c2=O)cc1	-31.4
Cc1ccc(CN2CCCCC2c2ccccn2)o1 (stereo not drawn)	-69.1
O=C(CCN1CCCCC1)N[C@@H]1CC[C@H](CC(=O)N2CCC(Cc3ccccc3)CC2)O[C@H]1CO	-35.7
CC1NC(=O)COC12CCN(C(=O)c1cnccn1)CC2 (stereo not drawn)	-11.7
COc1cccc(-n2c(=O)c(C(=O)NCc3cc(F)cc(F)c3)c(O)c3cccnc32)c1	-101.3*
COc1ccc(NC(=O)Cn2c(=O)cc(C(=O)N3CCOCC3)c3ccccc32)cc1	10.9
COc1cccc(OC)c1C(=O)Nc1nc2ccc([N+](=O)[O-])cc2s1	30.9
Cc1oc(C2CCN(C(=O)Nc3ccc(F)cc3F)CC2)nc1C(=O)N1CCCC1	-9.1
COc1ccc(N2C(=O)CSC23C(=O)N2CCCc4cccc3c42)cc1 (stereo not drawn)	2.6
CCCNC(=O)N(C)C[C@@H]1Oc2cc(C#C[C@@H](C)O)ccc2S(=O)(=O)N([C@@H](C)CO)C[C@@H]1C	-54.9
O=C(O)c1ccc(NC2OC(CO)C(O)C(O)C2O)cc1 (stereo not drawn)	5.8
C/C=C/c1ccc([C@H]2[C@@H](CO)N(C(C)=O)[C@@H]2CNC(=O)c2ccccc2)cc1	15.8
O=C(O)CC(NC(=O)Nc1ccccc1)c1ccsc1 (stereo not drawn)	114.3
CN(C)C1CCN(C(=O)c2ccn(-c3ccc4ccccn34)n2)CC1	-2.4
CN1CCCC(n2nc(Cc3ccc(Cl)cc3)c3ccccc3c2=O)CC1 (stereo not drawn)	-9.7&7.7
COC(=O)c1ccc(S(=O)(=O)Nc2ccc(N3CCOCC3)cc2)n1C	-39.7
CCc1cnc(N2[C@H](C#N)[C@@H](c3ccc(C#Cc4ccccc4F)cc3)[C@@H]2CO)s1	-58.4
CCN(C)C(=O)C1Cc2nc(-c3cccc(OC)c3)sc2N1C(C)C (stereo not drawn)	-2.4

Random excerpt: 3 compounds from above.
SMILES	Tgondii IFNg
O=C(O)c1ccc(NC2OC(CO)C(O)C(O)C2O)cc1 (stereo not drawn)	5.8
CCCNC(=O)N(C)C[C@@H]1Oc2cc(C#C[C@@H](C)O)ccc2S(=O)(=O)N([C@@H](C)CO)C[C@@H]1C	-54.9
COc1cccc(OC)c1C(=O)Nc1nc2ccc([N+](=O)[O-])cc2s1	30.9

Back to the main list with the 2 entries that preceded the break.
SMILES	Tgondii IFNg
CCc1cnc(N2[C@H](C#N)[C@@H](c3ccc(C#Cc4ccccc4F)cc3)[C@@H]2CO)s1	-58.4
CCN(C)C(=O)C1Cc2nc(-c3cccc(OC)c3)sc2N1C(C)C (stereo not drawn)	-2.4
CC(C)N1CCC(c2nc3ccc(NC4CCC4)cn3n2)CC1	56.0
C[C@H]1CN([C@@H](C)CO)C(=O)c2cccc(NC(=O)Nc3ccc4c(c3)OCO4)c2O[C@H]1CN(C)S(C)(=O)=O	17.5
CCc1cc(CNC(=O)Cn2c(C(F)(F)F)nc3ccccc32)on1	24.1
Cc1ccc(CCNCC2(O)CCCN(Cc3ccc(F)c(F)c3)C2=O)o1 (stereo not drawn)	-19.1
O=C(CCSc1ccc2c(c1)OCCO2)NCCN1CCCC(O)C1 (stereo not drawn)	109.1
CN(C)CC(=O)N1CCC2(CCOCC2COc2cnccn2)CC1 (stereo not drawn)	-2.3
COc1ccc2[nH]c(=O)c(CN3CCOC(CN)C3)cc2c1 (stereo not drawn)	6.0
O=C(O)CCC(=O)CCC(=O)c1cccs1	-0.5
Cc1cc(Cn2cnc3sc4c(c3c2=O)CCNC4)c(C(F)(F)F)o1	17.4
CCCCCCC#Cc1cncc(C(=O)Nc2ccc(F)cc2F)c1	-11.1
COCCN1CCC2CN(Cc3ccsc3)CC2C1=O (stereo not drawn)	-46.9
C=CCn1c2c(ccc1=O)CC(NC(=O)c1ccnnc1)CC2 (stereo not drawn)	-6.8
Cc1cccc(C(=O)Nc2ncc3c(n2)CC(c2ccco2)CC3=O)c1 (stereo not drawn)	113.3
Cc1nc(CNC(=O)c2cc(C3CC3)[nH]n2)nc2c1CCCC2	2.6
Cc1cc(C)cc(NC(=O)C(=O)NCCc2csc(-c3ccc(C(F)(F)F)cc3)n2)c1	97.6
CN(C(=O)c1ccc(-n2cnnc2)cc1)C1CCCc2ccccc21 (stereo not drawn)	-61.2
CCn1nc(C)c(C(C)NC(=O)CC2NC(=O)N(C3CCCCC3)C2=O)c1C (stereo not drawn)	11.0
CN(Cc1ccsc1)Cc1cc2n(n1)CCCNC2	-10.1
CN(C)C(=O)c1cccc(-c2ccc([C@H]3[C@@H](CO)N4CCCCN(CC5CCOCC5)C[C@@H]34)cc2)c1	8.0
CN1CC2(CCN(C(=O)c3cc4cccc(Cl)c4n3C)C2)OC1=O (stereo not drawn)	-24.6
CCOCCCNC(c1ccccc1)c1ccncc1 (stereo not drawn)	3.2
COC[C@]12CCC[C@@H]1CN(S(=O)(=O)c1ccc(C)cc1OC)C2	-10.7
c1cc(CN2CCCN(c3ccc4c(c3)OCCO4)CC2)nc(N2CCCC2)n1	14.2
Cc1ccc(C(NC(=O)CN2CCCCCC2=O)c2ccncc2)cc1C (stereo not drawn)	-7.3
O=C(c1ccco1)N1CCOCC2(CCN(c3ncccn3)C2)C1 (stereo not drawn)	65.5
Cc1ccccc1NC(=O)CC(=O)NCCc1ccccc1Cl	5.4
CC(C)N1CCCn2nnc(COCCN3CCCC3)c2C1	2.3
COCC1CN(Cc2ccc(F)cc2)Cc2nn(CC3CC3)cc21 (stereo not drawn)	-9.4
CCn1ccc(-c2cc(NCc3ccccc3OC(C)C)nc(C)n2)n1	0.1
CC(=O)O[C@@H]1CC2C(C)(C)C(=O)C3OC3[C@]2(C)C2CC[C@@]3(C)[C@H](c4ccoc4)OC(=O)C4OC43[C@@]21C (stereo partly drawn)	-25.5

Arranged by molar mass (ascending): some entries from above.
SMILES	Tgondii IFNg
CCOCCCNC(c1ccccc1)c1ccncc1 (stereo not drawn)	3.2
O=C(c1ccco1)N1CCOCC2(CCN(c3ncccn3)C2)C1 (stereo not drawn)	65.5
CCn1ccc(-c2cc(NCc3ccccc3OC(C)C)nc(C)n2)n1	0.1

The results go on.
SMILES	Tgondii IFNg
COc1ccc2[nH]cc(CCC(=O)O)c2c1	-5.8
O=C(c1sc2ccccc2c1Cl)N1CCC(c2nc3ccccc3[nH]2)CC1	-24.0
C[C@@H](CN1CCC(n2c(=O)[nH]c3cc(Cl)ccc32)CC1)NC(=O)c1ccc2ccccc2c1	?
O=C(NCc1cccs1)c1cc(F)cc2c1OCOC2	84.9
O=C(CC(F)(F)F)N1C[C@@H]2[C@H](c3ccccc31)[C@H](CO)N2C(=O)C1CCCCC1	-30.4
Cc1c(CC(=S)N2CCOCC2)sc2ccc(Cl)cc12	9.8
CCc1cc(C(C)Nc2nc(-c3cccnc3)nc3c2CNC3)on1 (stereo not drawn)	-88.2*
O=C(O)Cn1c(C(=O)Nc2nc(-c3ccccc3Cl)cs2)cc2ccccc21	11.9&6.2
COc1ccc(-c2nc(Nc3ccc(C(C)C)cc3)c3ccccc3n2)cc1	-22.0
O=C(C[C@@H]1CC[C@H]2[C@@H](COC[C@@H](O)CN2CC2CCOCC2)O1)NCc1ccc(Cl)cc1	-16.0
Cc1oc(-c2ccc(C(=O)NCCc3ccco3)cc2)nc1CN1CCc2ccccc21	-64.1
